Ecoli rRNA inh: selective bacterial rRNA inhibition in E. coli | E. coli WT GFP vs humanized-ribosome RFP mutants, fluorescence, 24 h; hits give low values; DMSO median 0, no signal -100 | GFP signal change (wild-type ribosome), % (no concentration beside the values) | 350,000 tested, 1.6% active;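 active = significant combined selectivity score with lowered wild-type GFP, culture density cut under 30%, mutant RFP and density less affected; inactive = any of these conditions unmet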; note: one replicate is shown; some compounds called inactive have numbers as strong as hits
Ecoli rRNA inh OD600: also measured in Ecoli rRNA inh; calls as there; OD600 change, %; measured here: OD600 growth;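 optical density of the mix in the first replicate; 0 = DMSO median and -100 = no signal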
Ecoli rRNA inh RFP: further read-out of Ecoli rRNA inh, marked with its call; RFP signal change, %; measured here: RFP humanized mutant strains;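 first replicate; 0 = DMSO median and -100 = no signal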
* hit, by the source's call.

COc1cc(C(O)c2nc(-c3cccc4cccnc34)cs2)ccc1F (stereo unspecified) was read as Ecoli rRNA inh -35, Ecoli rRNA inh OD600 -68 and Ecoli rRNA inh RFP -6.3.
`O=C(c1ccncc1)N1CC(=O)N2[C@H](CO)[C@H](c3ccc(C#CCC4CCCC4)cc3)[C@@H]2C1` gave Ecoli rRNA inh -48, Ecoli rRNA inh OD600 -74 and Ecoli rRNA inh RFP -8.3.
For O=C(C[C@H]1CC[C@H]2[C@@H](COC[C@@H](O)CN2C(=O)c2ccccc2F)O1)N1CCCCC1 the results were Ecoli rRNA inh -2, Ecoli rRNA inh OD600 2 and Ecoli rRNA inh RFP -1.4.
`COc1cccc(NC(=O)N2CC(=O)N3[C@H](CO)[C@@H](c4ccc(C5=CCCC5)cc4)[C@H]3C2)c1` gave Ecoli rRNA inh 0, Ecoli rRNA inh OD600 -30 and Ecoli rRNA inh RFP 10.
`c1ccc(COc2cccc(-c3cc4nc(NCCN5CCOCC5)ccn4n3)c2)cc1` gave Ecoli rRNA inh -45, Ecoli rRNA inh OD600 -74 and Ecoli rRNA inh RFP -17.
For Cc1ccc(S(=O)(=O)Nc2ccc3c(c2)C(=O)N([C@@H](C)CO)C[C@@H](C)[C@@H](CN(C)S(=O)(=O)c2cn(C)cn2)OCCCC[C@@H](C)O3)cc1 the results were Ecoli rRNA inh -4, Ecoli rRNA inh OD600 -8 and Ecoli rRNA inh RFP 0.4.
For CO[C@@H]1CN(C)C(=O)c2cc(NC(=O)Nc3cccc(Cl)c3)ccc2OC[C@H](C)NC[C@@H]1C the results were Ecoli rRNA inh -3, Ecoli rRNA inh OD600 -3 and Ecoli rRNA inh RFP 2.5.
`O=C(C[C@@H]1C[C@H]2c3cc(NC(=O)C4CCC4)ccc3O[C@H]2[C@@H](CO)O1)NCc1cccnc1` gave Ecoli rRNA inh -5, Ecoli rRNA inh OD600 0 and Ecoli rRNA inh RFP 0.4.
For Nc1ccc(S(=O)(=O)Nc2nc(-c3ccccc3)cc(-c3ccccc3O)n2)cc1 the results were Ecoli rRNA inh -10, Ecoli rRNA inh OD600 5 and Ecoli rRNA inh RFP 7.5.
C[C@@H]1CN([C@H](C)CO)C(=O)c2cc(NS(=O)(=O)c3cn(C)cn3)ccc2O[C@@H](C)CCCCO[C@H]1CN(C)S(=O)(=O)c1ccccc1 was read as Ecoli rRNA inh 3, Ecoli rRNA inh OD600 1 and Ecoli rRNA inh RFP -1.2.
For COc1ccccc1-c1cn(CC[C@@H]2CC[C@@H](NC(=O)C3CCCCC3)[C@@H](CO)O2)nn1 the results were Ecoli rRNA inh 0, Ecoli rRNA inh OD600 -5 and Ecoli rRNA inh RFP 1.2.
`C[C@@H]1CN([C@@H](C)CO)C(=O)Cc2cc(NC(=O)CCN3CCOCC3)ccc2O[C@H]1CN(C)CC1CCCCC1` gave Ecoli rRNA inh 3, Ecoli rRNA inh OD600 8 and Ecoli rRNA inh RFP 0.8.
Screening C[C@H](CO)N1C[C@H](C)[C@@H](CN(C)Cc2ccc(C(F)(F)F)cc2)Oc2ccc(NC(=O)Cc3cn(C)c4ccccc34)cc2CC1=O returned Ecoli rRNA inh 3, Ecoli rRNA inh OD600 5 and Ecoli rRNA inh RFP 2.4.
`COc1ccccc1S(=O)(=O)N[C@@H]1CC[C@@H](CCn2cc(C3CC3)nn2)O[C@H]1CO` gave Ecoli rRNA inh -2, Ecoli rRNA inh OD600 -8 and Ecoli rRNA inh RFP -1.3.
For COc1ccccc1C#Cc1ccc([C@@H]2[C@H](C#N)N(C(=O)C3CC3)[C@H]2CO)cc1 the results were Ecoli rRNA inh 3, Ecoli rRNA inh OD600 2 and Ecoli rRNA inh RFP -0.3.
COCC(=O)N1C[C@H](C)[C@H](OC)CN(C)C(=O)c2ccc(NC(=O)c3ccc(F)cc3)cc2OC[C@@H]1C was read as Ecoli rRNA inh 0, Ecoli rRNA inh OD600 2 and Ecoli rRNA inh RFP -1.0.
For COc1ccc2c3c([nH]c2c1)[C@@H](CO)N(C(=O)c1ccc(F)cc1)CC31CCN(C(=O)Nc2ccc(F)cc2)CC1 the results were Ecoli rRNA inh -6, Ecoli rRNA inh OD600 -19 and Ecoli rRNA inh RFP 0.4.
`CC(C)CN(C[C@H]1N[C@H](CO)[C@@H]1c1ccccc1)C(=O)C1CCCCC1` gave Ecoli rRNA inh 1, Ecoli rRNA inh OD600 -3 and Ecoli rRNA inh RFP 1.0.
COCCNC(=O)C[C@H]1CC[C@H]2[C@@H](COc3ccc(NS(=O)(=O)c4ccc(Cl)cc4)cc3C(=O)N2C)O1 was read as Ecoli rRNA inh -1, Ecoli rRNA inh OD600 -1 and Ecoli rRNA inh RFP -0.6.
For CC1(Oc2cccnc2Cl)CCN(Cc2ccc(OC(F)(F)F)cc2)C1 (stereo unspecified) the results were Ecoli rRNA inh 18, Ecoli rRNA inh OD600 16 and Ecoli rRNA inh RFP 5.4.

For convenience, part of the list above.
COc1cc(C(O)c2nc(-c3cccc4cccnc34)cs2)ccc1F (stereo unspecified) was read as Ecoli rRNA inh -35, Ecoli rRNA inh OD600 -68 and Ecoli rRNA inh RFP -6.3.
`O=C(c1ccncc1)N1CC(=O)N2[C@H](CO)[C@H](c3ccc(C#CCC4CCCC4)cc3)[C@@H]2C1` gave Ecoli rRNA inh -48, Ecoli rRNA inh OD600 -74 and Ecoli rRNA inh RFP -8.3.
For O=C(C[C@H]1CC[C@H]2[C@@H](COC[C@@H](O)CN2C(=O)c2ccccc2F)O1)N1CCCCC1 the results were Ecoli rRNA inh -2, Ecoli rRNA inh OD600 2 and Ecoli rRNA inh RFP -1.4.
`COc1cccc(NC(=O)N2CC(=O)N3[C@H](CO)[C@@H](c4ccc(C5=CCCC5)cc4)[C@H]3C2)c1` gave Ecoli rRNA inh 0, Ecoli rRNA inh OD600 -30 and Ecoli rRNA inh RFP 10.
`c1ccc(COc2cccc(-c3cc4nc(NCCN5CCOCC5)ccn4n3)c2)cc1` gave Ecoli rRNA inh -45, Ecoli rRNA inh OD600 -74 and Ecoli rRNA inh RFP -17.
For Cc1ccc(S(=O)(=O)Nc2ccc3c(c2)C(=O)N([C@@H](C)CO)C[C@@H](C)[C@@H](CN(C)S(=O)(=O)c2cn(C)cn2)OCCCC[C@@H](C)O3)cc1 the results were Ecoli rRNA inh -4, Ecoli rRNA inh OD600 -8 and Ecoli rRNA inh RFP 0.4.

Other structures.
C[C@H](CO)N1C[C@H](C)[C@H](CN(C)S(=O)(=O)c2cccs2)OCCCC[C@H](C)Oc2ccc(NC(=O)Nc3ccc(F)cc3)cc2C1=O was read as Ecoli rRNA inh -1, Ecoli rRNA inh OD600 8 and Ecoli rRNA inh RFP 0.3.
`C[C@@H]1CN([C@@H](C)CO)C(=O)c2cc(NS(=O)(=O)c3ccc(Cl)cc3)ccc2O[C@@H]1CN(C)Cc1ccncc1` gave Ecoli rRNA inh 1, Ecoli rRNA inh OD600 -3 and Ecoli rRNA inh RFP 3.2.
`O=C(NCCN1CCC(n2c(=O)[nH]c3ccccc32)CC1)c1ccc(Cl)cc1Cl` gave Ecoli rRNA inh -5, Ecoli rRNA inh OD600 -6 and Ecoli rRNA inh RFP 0.1.
`CC(C)NC(=O)N(C)C[C@H]1Oc2ccc(NC(=O)C3CCCCC3)cc2CC(=O)N([C@H](C)CO)C[C@@H]1C` gave Ecoli rRNA inh 1, Ecoli rRNA inh OD600 -1 and Ecoli rRNA inh RFP -0.9.
Screening CCCNC(=O)N1CCC2(CC1)CN(Cc1ccccc1)[C@@H](CO)c1[nH]c3cc(OC)ccc3c12 returned Ecoli rRNA inh 0, Ecoli rRNA inh OD600 -4 and Ecoli rRNA inh RFP -0.1.
Screening CN(C)C(=O)C[C@@H]1C[C@@H]2c3cc(NC(=O)Nc4ccccc4)ccc3O[C@@H]2[C@H](CO)O1 returned Ecoli rRNA inh 0, Ecoli rRNA inh OD600 4 and Ecoli rRNA inh RFP 3.1.
Screening COc1ccc(CN(C)C[C@H]2OCCCC[C@@H](C)Oc3ccc(NC(=O)Nc4c(C)noc4C)cc3C(=O)N([C@@H](C)CO)C[C@@H]2C)cc1 returned Ecoli rRNA inh 3, Ecoli rRNA inh OD600 -7 and Ecoli rRNA inh RFP 0.4.
`OC[C@H]1[C@@H](c2ccc(/C=C/c3ccccc3)cc2)[C@H]2CN(Cc3cccnc3)CCCCN21` gave Ecoli rRNA inh -46, Ecoli rRNA inh OD600 -61 and Ecoli rRNA inh RFP 5.9.
For C[C@H](CO)N1C[C@H](C)[C@@H](CN(C)C(=O)c2ccccc2)OCCCC[C@H](C)Oc2ccc(NS(=O)(=O)c3cn(C)cn3)cc2C1=O the results were Ecoli rRNA inh 2, Ecoli rRNA inh OD600 7 and Ecoli rRNA inh RFP -1.4.
`Cc1cc(C(=O)Nc2cccc3c2O[C@@H](CN(C)C(=O)NC(C)C)[C@@H](C)CN([C@H](C)CO)C3=O)n(C)n1` gave Ecoli rRNA inh 0, Ecoli rRNA inh OD600 0 and Ecoli rRNA inh RFP -1.8.
COc1ccc(NC(=O)Nc2ccc3c(c2)CC(=O)N([C@@H](C)CO)C[C@@H](C)[C@H](CN(C)C)O3)cc1 was read as Ecoli rRNA inh 2, Ecoli rRNA inh OD600 17 and Ecoli rRNA inh RFP -2.6.
Screening Cc1noc(C)c1NC(=O)N(C)C[C@H]1Oc2c(NC(=O)Nc3cccc4ccccc34)cccc2C(=O)N([C@@H](C)CO)C[C@@H]1C returned Ecoli rRNA inh -2, Ecoli rRNA inh OD600 0 and Ecoli rRNA inh RFP 2.0.
CS(=O)(=O)N1CC2C(c3ccc(Br)cc3)C(C1)N2CC(F)(F)F (stereo unspecified) was read as Ecoli rRNA inh -4, Ecoli rRNA inh OD600 -18 and Ecoli rRNA inh RFP 2.2.
C[C@H](CO)N1C[C@H](C)[C@H](CN(C)S(C)(=O)=O)Oc2ccc(NC(=O)Nc3ccccc3)cc2CC1=O was read as Ecoli rRNA inh 0, Ecoli rRNA inh OD600 -1 and Ecoli rRNA inh RFP -0.4.
For O=C(O)C[C@H]1C[C@H]2c3cc(NC(=O)NC4CCCC4)ccc3O[C@H]2[C@@H](CO)O1 the results were Ecoli rRNA inh 5, Ecoli rRNA inh OD600 3 and Ecoli rRNA inh RFP -2.4.
For C[C@H]1CCCCO[C@@H](CN(C)C(=O)Nc2ccc(C(F)(F)F)cc2)[C@@H](C)CN([C@@H](C)CO)C(=O)c2cc(NS(=O)(=O)c3cccs3)ccc2O1 the results were Ecoli rRNA inh 0, Ecoli rRNA inh OD600 2 and Ecoli rRNA inh RFP -0.8.
Screening CN1C[C@H]2[C@@H](c3ccccc31)[C@H](CO)N2C(=O)Nc1ccccc1 returned Ecoli rRNA inh -6, Ecoli rRNA inh OD600 -5 and Ecoli rRNA inh RFP -2.3.
`C[C@@H]1CN([C@@H](C)CO)C(=O)Cc2cc(NS(=O)(=O)c3ccc(F)cc3)ccc2O[C@@H]1CN(C)S(=O)(=O)c1ccc(F)cc1` gave Ecoli rRNA inh 0, Ecoli rRNA inh OD600 -12 and Ecoli rRNA inh RFP 0.3.
Screening Cc1ccc(S(=O)(=O)N(C)C[C@@H]2Oc3cc(-c4cccc(F)c4)ccc3S(=O)(=O)N([C@@H](C)CO)C[C@@H]2C)cc1 returned Ecoli rRNA inh 3, Ecoli rRNA inh OD600 -1 and Ecoli rRNA inh RFP 0.2.
CCCC(=O)N1CCC1(C)C(=O)NS(=O)(=O)c1ccc(OC)cc1 (stereo unspecified) was read as Ecoli rRNA inh 4, Ecoli rRNA inh OD600 8 and Ecoli rRNA inh RFP 0.8.
`Cc1ccc(S(=O)(=O)Nc2ccc3c(c2)C(=O)N([C@@H](C)CO)C[C@H](C)[C@@H](CN(C)Cc2ccc(Oc4ccccc4)cc2)O3)cc1` gave Ecoli rRNA inh -3, Ecoli rRNA inh OD600 -7 and Ecoli rRNA inh RFP 2.0.
For CN1C(=O)c2cc(NC(=O)Nc3ccccc3F)ccc2OC[C@@H]2O[C@H](CC(=O)O)CC[C@H]21 the results were Ecoli rRNA inh 3, Ecoli rRNA inh OD600 10 and Ecoli rRNA inh RFP -1.2.
Screening C[C@@H]1CN([C@@H](C)CO)C(=O)c2cc(NC(=O)CCCN(C)C)ccc2O[C@@H]1CN(C)C returned Ecoli rRNA inh 3, Ecoli rRNA inh OD600 2 and Ecoli rRNA inh RFP 2.2.
CO[C@@H]1CN(C)C(=O)c2cc(NC(=O)c3cnccn3)ccc2OC[C@@H](C)N(C(=O)c2cnccn2)C[C@H]1C was read as Ecoli rRNA inh 4, Ecoli rRNA inh OD600 3 and Ecoli rRNA inh RFP -2.9.
`COC(=O)C[C@H]1C[C@@H]2c3cc(NC(=O)Nc4ccccc4)ccc3O[C@@H]2[C@H](CO)O1` gave Ecoli rRNA inh 0, Ecoli rRNA inh OD600 2 and Ecoli rRNA inh RFP -1.5.
`C[C@H](CO)N1C[C@H](C)[C@@H](CN(C)C(=O)Nc2cccc3ccccc23)Oc2c(NC(=O)Nc3ccc(F)cc3)cccc2C1=O` gave Ecoli rRNA inh -2, Ecoli rRNA inh OD600 -4 and Ecoli rRNA inh RFP -0.4.
CC(C)C#Cc1ccc2c(c1)O[C@H](CN(C)Cc1cccnc1)[C@H](C)CN([C@@H](C)CO)S2(=O)=O was read as Ecoli rRNA inh -25, Ecoli rRNA inh OD600 -60 and Ecoli rRNA inh RFP 27.
Screening CCC(=O)Nc1ccc2c(c1)OC[C@@H](C)N(C(=O)c1ccc(F)cc1)C[C@H](C)[C@H](OC)CN(C)C2=O returned Ecoli rRNA inh -1, Ecoli rRNA inh OD600 4 and Ecoli rRNA inh RFP -1.8.
O=C(NCC1CC1)c1ccc(-c2cn[nH]c2)c2ccoc12 was read as Ecoli rRNA inh -3, Ecoli rRNA inh OD600 -7 and Ecoli rRNA inh RFP 3.2.

Screening data deposited in PubChem by Broad Institute.

The list is partial, so the mix of outcomes need not match the whole.
